Bioassay records (PubChem BioAssay)
VACV E9 pol inh: blocks vaccinia virus processive DNA synthesis. in vitro processive DNA synthesis, absorbance read-out; stronger effect = lower value; some inactives read as strong as hits. AID 493162. normalized absorbance, % (test concentration not listed). hit rate 0.94% among 46,000;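 active = replicate mean up to 90% and picked by the depositor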;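 also: 100% = median of the test wells of a plate; 100 nL library stock went into each well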
* hit, by the source's call; & = joins results of further samples.

Start of the data: the first 2 compounds (preview)
Compound,VACV E9 pol inh
COc1cc2c(cc1OC)C(COc1cc(C)cc(C)c1)NCC2 (centres undefined),105
C[C@@H]1C(=O)CC[C@@]2(CO)CCC(C)(C)C[C@@H]12,102

The list itself, from the start:
Compound,VACV E9 pol inh
COc1cc2c(cc1OC)C(COc1cc(C)cc(C)c1)NCC2 (centres undefined),105
C[C@@H]1C(=O)CC[C@@]2(CO)CCC(C)(C)C[C@@H]12,102
COC(=O)c1ccccc1Sc1c(-c2ccccc2)nc2ncccn12,100
CCC(=O)Nc1sc2c(c1C(N)=O)CCCCC2,100
CCN1CCC(N(Cc2ccc(F)cc2)C(=O)NC23CC4CC(CC(C4)C2)C3)CC1,102
Cc1cc2ncc(-c3cccs3)nc2cc1C,100
COC(=O)C1=C(O)/C(=C/c2ccc(C(C)(C)C)cc2)N=C1C,100
O=C(NCCCn1ccnc1)c1cc(-c2ccccc2)on1,105
Cc1cc(C(F)(F)F)c(C#N)c(=S)[nH]1,99
NC(=O)CN1CCCC1=O,100
CC1CCN(c2ccc(C#N)cc2)CC1,105
CCOc1ncc(-c2nnnn2-c2ccc(C)cc2)c(-c2cccc(Cl)c2)n1,94
CC(C)c1ccc(NC(=O)C(NC(=O)/C=C/c2ccc3c(c2)OCO3)c2ccccc2)cc1 (centres undefined),98
Clc1cc2c(c(Cn3cnc4ccccc43)c1)OCOC2,112
COc1ccc(NC(=S)NC2CCCCC2)cc1,99
Nc1nccc(-c2ccccc2OCc2ccc(Cl)cc2)n1,99
COc1ccc(C2C(C#N)=C(SC)NC(C)=C2C(=O)Nc2ccccc2C)cc1OC (centres undefined),102
CC(=O)NC(c1ccccc1)c1nc2ccccc2[nH]1 (centres undefined),83
COc1ccc2c(c1)OC1(C)CC2C(S(=O)(=O)c2ccccc2)C(=O)N1 (centres undefined),96
COC(=O)c1ccc(CSc2ncnc3ccccc23)o1,100
COc1ccc(CSc2cccc3cccnc23)cc1,99
O=C(NCCO)c1nnc(-c2ccc3c(c2)OCO3)o1,103
CCOC(Cn1c(CO)nc2ccccc21)OCC,102
Cc1cc2c(c(SCc3ccc(Cl)cc3)n1)C(=O)OC2,100
Cc1ccc(NC(=O)Nc2ccc(C(C)(C)C)cc2)cc1,100
CC(NC(=S)N1CCc2ccccc2C1)C12CC3CC(CC(C3)C1)C2 (centres undefined),100
Cc1cccc(C)c1NC(=O)CC1C(=O)N(Cc2ccccc2)C(C)c2nc3ccccc3n21 (centres undefined),111
CCN1C(=O)c2cccc3c(S(=O)(=O)NC(Cc4c[nH]c5ccccc45)C(=O)O)ccc1c23 (centres undefined),97
Cc1cc(NC(=O)Cc2ccccc2)ccc1-c1cc2ccccc2oc1=O,100
O=C(CS(=O)(=O)c1cn(Cc2ccc(F)cc2)c2ccccc12)N1CCCCC1,101
N#Cc1ccc(CSc2ncnc3ccccc23)cc1,88
NC(=O)c1cc([N+](=O)[O-])cc([N+](=O)[O-])c1,100
COc1ccc(Cl)cc1S(=O)(=O)NCc1ccco1,88
COc1cccc(-c2nnc(-c3ccccc3NS(=O)(=O)c3ccc(Cl)cc3)o2)c1,103
C[n+]1cccc(C(=O)NO)c1,99
CC(=O)Nc1ccccc1-c1nc2ccccc2o1,98
O=C1Nc2ccccc2N(O)N1c1nccs1,93
CC(Oc1ccccc1)C(=O)N(CC#N)CC#N (centres undefined),94
CCn1c2ccccc2c2cc(NC(=O)c3ccc(OC)c(OC)c3)ccc21,96
O=C1/C(=C\c2c[nH]c3ccccc23)C(c2ccccc2)Oc2ccccc21 (centres undefined),104
CC1(C)OC(C)(C)/C(=C/c2c(Cl)cccc2Cl)C1=O,100
O=C(Nc1ccc(Cl)cc1)c1cccnc1C(=O)O,93
CC(C)(C)c1ccc(NC(=O)CCSc2ccc3ccccc3n2)cc1,99
Cc1ccccc1-n1c(CSC(=N)N)nc2ccccc2c1=O,98
S=C(Nc1ccccc1)Nc1ccccc1-c1nc2ccccc2[nH]1,68*
Nc1ccccc1NC(=S)Nc1ccccc1C(F)(F)F,99
CC(C)(C)n1nc(-c2ccc(F)cc2)c(C#N)c1N,104
O=C(Nc1nc2ccc(Br)cc2s1)c1ccc(N2C(=O)CCC2=O)cc1,100
CCOC(=O)c1sc(C)c2c(=O)[nH]c(-c3ccccc3)nc12,100
CCCCC[C@H](O)/C=C/C=C\C=C\C=C\[C@@H](O)[C@@H](O)CCCC(=O)O,99
COc1cccc(C(=O)NCCSc2c[nH]c3ccccc23)c1OC,105
CC1CCCCN1C(=O)c1cccc2c1SCCC2=O (centres undefined),111
CCCC(CCC)C(=O)Nc1cc(C(=O)O)cc(C(=O)O)c1,100
O=S(=O)(CC(O)(c1ccccc1)c1ccccc1)c1cccc(C(F)(F)F)c1,98
CCO/C=C1\C(=O)N(Cc2ccccc2)C(=O)c2ccccc21,97
O=C(/C=C/c1ccco1)NCCc1ccccc1,102
Cn1c(CC(=O)O)c(S(C)(=O)=O)c2ccccc21,99
COc1ccc(CCC(=O)c2c(O)cc(O[C@@H]3O[C@H](CO)C(O)[C@H](O)C3O[C@@H]3O[C@@H](C)[C@H](O)[C@@H](O)[C@H]3O)cc2O)cc1O (some centres undefined),100
Cc1cccc2nc(COc3ccc(Cl)cc3)cn12,85
CCCCNc1cc(C(=O)O)cc(S(N)(=O)=O)c1Oc1ccccc1,100&93

Additional structures.
Compound,VACV E9 pol inh
Cc1cc(NC(=O)Nc2ccccc2)c(C(F)(F)F)o1,98
Cc1ccc2c(=O)[nH]c(Cc3ccccc3C(=O)O)nc2c1,91
N#C/C(=C\Nc1cccc(Cl)c1)S(=O)(=O)c1ccc(Cl)cc1,102
O=C(c1ccc2c(c1)N(Cc1cccc(F)c1)C(=O)c1ccccc1S2)N1CCCCC1,87
COc1cc(/C=C/C(=O)O)cc(Br)c1O,87
COc1ccc(C2NC(c3ccc(OC)cc3)C(C)C(O)(Cc3ccccc3)C2C)cc1 (centres undefined),99
C[C@@H]1CC2C3C[C@H](F)C4=CC(=O)C=CC4(C)C3(F)[C@@H](O)CC2(C)C1C(=O)COC(=O)C(C)(C)C (some centres undefined),99
O=c1c(Cc2ccccc2)c(O)c2ccccc2n1-c1ccccc1,103
Cc1csc2c(NCCCN3CCOCC3)ncnc12,103
Cc1[nH]c(-c2ccc(F)cc2)cc1C(=O)NCCc1ccc(S(N)(=O)=O)cc1,102
COC(=O)c1sc(C(F)(F)F)c(-c2ccccc2)c1S(=O)(=O)NC(C)(C)C,94
CN(C1CCCCC1)S(=O)(=O)c1ccc2ccccc2c1,100
CC(C)(C)C(=O)Nc1ccc(C(C)(C)C)cc1,102
O=C(Nc1cccc(Cl)c1)Nc1ccc(CSc2ccc(Cl)cc2)o1,104
Clc1ccc2oc(-c3ccccc3)cc(=NCc3cccnc3)c2c1,66*
C/C=C(/C)C(=O)O[C@H]1C(C)=C2[C@H]([C@@H]1OC(=O)CCCCCCC)[C@@](C)(OC(C)=O)C[C@H](OC(=O)CCC)[C@@]1(O)[C@H]2OC(=O)[C@@]1(C)O,100
O=C(/C=C/c1ccccc1)OC1CCOC1=O (centres undefined),109
COc1ccccc1C(CC(=O)N1CCCC1)c1ccc2c(c1)OCO2 (centres undefined),97
Clc1cccc(Nc2nnc(Cc3cccnc3)c3ccccc23)c1,102
C=C[C@H]1CN2CC[C@H]1C[C@H]2[C@H](O)c1ccnc2ccccc12,99
Cc1cc(OC(=O)N(C)C)nc(-c2ccc(F)c(Cl)c2)n1,98
CC(=O)N1CCc2c(sc3c2c(=O)n(Cc2ccccc2)c(=O)n3Cc2cccc(C)c2)C1,97
NCCCC(N)CC(=O)NCC1NC(=O)C(CO)NC(=O)C(N)CNC(=O)C(C2CCN=C(N)N2)NC(=O)/C(=C/NC(N)=O)NC1=O (centres undefined),100
CC1(C)C=C(O)C(C2(O)C(=O)c3ccccc3C2=O)C(=O)C1 (centres undefined),99
Cc1ccc2c3c(ccc2n1)NC1=C(C(=O)CCC1)C3c1ccccc1C (centres undefined),100
CCC(Sc1nc(=O)cc(N)n1CCc1ccccc1)C(=O)Nc1nc(-c2ccccc2)cs1 (centres undefined),105
O=C(OCC(=O)c1cccs1)c1ccc(O)cc1,99
Oc1ccc(CNc2ccc(F)cc2)c2cccnc12,95
O=C(NN1C(=O)/C(=C\c2cccnc2)SC1=S)c1ccccc1,100
CN1CCc2c(OCC(=O)N3CCCCCC3)cccc2C1=O,100

Part of the list above in order of number of heavy atoms, largest number first:
Compound,VACV E9 pol inh
CCCC(CCC)C(=O)Nc1cc(C(=O)O)cc(C(=O)O)c1,100
Nc1ccccc1NC(=S)Nc1ccccc1C(F)(F)F,99
Cc1cc2ncc(-c3cccs3)nc2cc1C,100

Pulled by structure from the entries so far:
Compound,VACV E9 pol inh
NCCCC(N)CC(=O)NCC1NC(=O)C(CO)NC(=O)C(N)CNC(=O)C(C2CCN=C(N)N2)NC(=O)/C(=C/NC(N)=O)NC1=O (centres undefined),100
Cc1cc(OC(=O)N(C)C)nc(-c2ccc(F)c(Cl)c2)n1,98
COc1ccccc1C(CC(=O)N1CCCC1)c1ccc2c(c1)OCO2 (centres undefined),97
CN1CCc2c(OCC(=O)N3CCCCCC3)cccc2C1=O,100
CC(=O)N1CCc2c(sc3c2c(=O)n(Cc2ccccc2)c(=O)n3Cc2cccc(C)c2)C1,97
C=C[C@H]1CN2CC[C@H]1C[C@H]2[C@H](O)c1ccnc2ccccc12,99
Oc1ccc(CNc2ccc(F)cc2)c2cccnc12,95

(next part)
Compound,VACV E9 pol inh
O=c1oc2ccccc2c(O)c1Sc1ccc(Cl)cc1,86
CCC(C)NC(=O)c1ccc(Cl)cc1 (centres undefined),99
C(=NC1CCCCCCCCCCC1)c1ccco1,98
O=C(/C=C/O)c1cccc(OCc2ccc(Cl)cc2Cl)c1,88
COc1ccc2oc(=O)cc(CN(Cc3cccs3)C(C)C)c2c1,102
CCSc1nc2ccccc2c(=O)n1-c1cccc(OC)c1,100
COc1ccc(S(=O)(=O)NCc2ccc(C(=O)N3CC(C)CC(C)C3)cc2)cc1 (centres undefined),95
Cc1nnc(C)n1/N=C/c1ccccn1,99
CC1=C(OC(=O)c2ccccc2)C(C)(C)C(c2ccccc2)OC1=O (centres undefined),100
CCOc1ccc(C=Nc2ccccc2)cc1,100
COc1ccc(N/C=C(\C#N)c2ccc(Cl)cc2)cc1,83
CNC(=O)c1ccc(Cn2c(SCc3ccc(C)cc3)nc3ccncc32)cc1,102
CC(NC(=S)NC(=O)c1cccs1)C12CC3CC(CC(C3)C1)C2 (centres undefined),98
COc1ccc(C(=O)C[n+]2cc(-c3ccc(OC)cc3)n3c2CCCCC3)cc1,101
CSc1nc2nc(-c3ccc4c(c3)CCC4)ccn2n1,88
O=C(c1cccc(S(=O)(=O)N2CCCC2)c1)N1CCCc2ccccc21,102
C=CCN(CC=C)S(=O)(=O)c1nc2nc(C)cc(C)n2n1,98
CC(C)S(=O)(=O)c1cscc1NC(=O)c1ccc(-c2cc(C(F)(F)F)nn2C)s1,103
Cc1cccc(-n2nc3c(c2NC(=O)COc2ccc(Cl)cc2Cl)CS(=O)C3)c1C (centres undefined),95
CN1C(=O)c2ccccc2C(C(=O)N2CCCCC2)C1c1cccs1 (centres undefined),93
CC(C)(CO)NC(=O)c1ccc(C(C)(C)C)cc1,80
O=C(Cn1cc(-c2ccccc2)nc1SCc1ccccc1)c1ccccc1,102
CC(OC(=O)c1ccc2ccccc2n1)C(=O)c1ccccc1 (centres undefined),97
O=C(COc1ccc(Oc2ccccc2)cc1)NCc1ccccc1,103
COc1ccc(-c2c(-c3ccc(O)cc3O)n[nH]c2C)cc1OC,92
COc1ccc(CCNC2CCCCC2C)cc1OC (centres undefined),93
CCOc1ccc(N(C)Cc2cc(=O)oc3ccc(OC)cc23)cc1,97
CN(C)c1ccc(C2C=C(c3ccccc3)Nc3ncnn32)cc1 (centres undefined),99
COc1cc(S(=O)(=O)N2CCCCCCC2)ccc1-n1cnnn1,98
O=C(OCc1ccccc1)c1ccccc1,101
O=C(NC(Cc1ccccc1)C(=O)O)c1ccco1 (centres undefined),96
CCCCN(C)C(=O)Cc1c(C(=O)O)[nH]c2ccc(Cl)cc12,99
Oc1c(CN2CCOCC2)ccc(CN2CCOCC2)c1O,91
Clc1cc(Cl)cc(Oc2nc(-c3ccccc3)ns2)c1,98
O=C(O)c1cc(C23CC4CC(CC(C4)C2)C3)ccc1O,98
COc1ccc(OCc2nc(N)nc(Nc3ccc(C)cc3)n2)cc1,101
CCc1c(O)c(Cc2ccccc2)c(=O)n(-c2nccs2)c1-c1ccccc1,99
CC(C)NC(=O)c1cccc2sc(N3CCCc4ccccc43)nc12,98
O=c1cc(O)n(Cc2ccco2)c(=S)[nH]1,87
Cc1sc(/N=C/c2ccc(O)cc2)c(C#N)c1C,100
NNC(=O)CCCSc1nc2ccccc2s1,101
O=S(=O)(c1ccccc1)N(Cc1ccccn1)Cc1ccccn1,111
O=C(O)c1ccccc1C(=O)OCc1ccccc1,99
COc1ccc(N2C(=O)CC(Cc3ccccc3)C2=O)cc1 (centres undefined),100
O=C(O)CNC(=O)Cn1cnc2sc3c(c2c1=O)CCCC3,100
CC1=NN(C(=O)C2CC2)C(=O)C1Cc1ccc(F)cc1 (centres undefined),91
CN(C)C(=O)COc1cc2oc(=O)c3c(c2cc1Cl)CCC3,100

Some of the compounds tested. The share of hits here may be higher or lower than overall.
